Assay outcomes deposited in PubChem by National Center for Advancing Translational Sciences (NCATS).
ClpP mod = qHTS Assay for Activators of ClpP. ATP-dependent Clp protease proteolytic subunit (Bacillus subtilis (strain 168)), P80244. purified B. subtilis ClpP, FRET peptide cleavage, 20 min. Potency, µM (series often up to 57.5 µM), for the others: top-dose activity change, negative = active. hit rate 1.9% among 340,000; active = well fitted falling curve with a large enough effect; inconclusive = small, poorly fitted or top-dose-only effect; inactive = no such curve, though single readings can be large or run the other way; further: potency means the concentration at half of the fitted maximal effect; the source files actives as falling curves though it sought activators and does not explain the sign; nearly all actives have a fitted effect of over 65% in size; many hits overshoot -100%
Target sequence (P80244 whole entry, looked up): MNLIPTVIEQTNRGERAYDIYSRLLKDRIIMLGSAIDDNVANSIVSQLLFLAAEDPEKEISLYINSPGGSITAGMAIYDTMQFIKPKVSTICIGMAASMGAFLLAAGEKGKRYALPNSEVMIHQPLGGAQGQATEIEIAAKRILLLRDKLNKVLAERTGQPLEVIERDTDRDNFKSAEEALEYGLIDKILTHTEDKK
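Buffer: 100 mM Tris/HCl pH8, 100 mM KCl, 0.05% low protease BSA, 2.5% glycerol, 0.01% Tween-20. ClpP 10 microg/mL final; 20 min RT; delta FRET normalized to ADEP and DMSO controls.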
TRPV1 PAM = potentiators of human vanilloid receptor 1 (TRPV1). AID 540277. Q8NER1. potentiation, % at 8.33 µM. hit rate 0.02% among 320,000. TRPV1-expressing cells, Fluo-8 calcium influx, capsaicin EC20 potentiation; host cell line not named in the record; control for the full effect not named in the record; active means potentiation above 80%; inconclusive means 30% to 80%; inactive means below 30%; further: 0% is about no effect
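Cells expressing TRPV1 were dye-loaded with Fluo-8 and read kinetically: 10 s baseline, 3 min after compound (agonist portion), then 2 min after EC20 capsaicin (allosteric enhancer portion). Calcium-bound dye fluorescence at 480/520 nm.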
TRPML1 inh = blocks the human TRPML1 channel. TRPML1-inducible cells, Ca2+ dye fluorescence, FDSS; active compounds read low; inhibition of EC80 agonist-evoked calcium signal. AID 624415. activity change, negative = inhibition, % (test concentration not listed). hit rate 0.02% among 390,000. Q9GZU1; in the data active means activity change below about -50%; inconclusive means about -30% to -50%; inactive means above about -30%;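 further: stimulus is agonist 54-4 at its EC80 concentration; on the % scale 0 is the no-effect control and ±100 the full control effect; compound concentration not given in the record; the text of the record puts the active cut at -80%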
Target sequence (Q9GZU1 whole entry, looked up): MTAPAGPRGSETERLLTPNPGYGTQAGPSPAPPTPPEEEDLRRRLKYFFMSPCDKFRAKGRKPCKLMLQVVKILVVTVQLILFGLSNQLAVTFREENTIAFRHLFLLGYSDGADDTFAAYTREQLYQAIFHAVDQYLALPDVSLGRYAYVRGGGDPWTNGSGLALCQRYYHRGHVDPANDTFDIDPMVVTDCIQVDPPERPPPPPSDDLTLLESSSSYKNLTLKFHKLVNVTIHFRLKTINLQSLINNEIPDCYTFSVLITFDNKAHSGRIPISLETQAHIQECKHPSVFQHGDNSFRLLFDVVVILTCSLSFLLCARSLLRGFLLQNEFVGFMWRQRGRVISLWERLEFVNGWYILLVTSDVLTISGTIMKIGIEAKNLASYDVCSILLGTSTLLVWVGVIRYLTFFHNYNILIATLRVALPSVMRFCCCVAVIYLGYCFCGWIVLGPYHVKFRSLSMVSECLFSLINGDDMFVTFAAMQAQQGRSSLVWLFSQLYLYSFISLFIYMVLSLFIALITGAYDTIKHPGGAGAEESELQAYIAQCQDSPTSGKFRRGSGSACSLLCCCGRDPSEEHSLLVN
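TRPML1-DL cells, Tet-induced overnight (~16 h, 37 °C) at 1,500 cells/well, were loaded with Ca8 no-wash dye plus quencher for 45-90 min at room temperature. Compounds were pinned during FDSS kinetic reading; agonist 54-4 at EC80 (4 uM final) then added.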
TRPML1 ag = human mucolipin-1 channel agonism; TRPML1-expressing cells, Ca2+ dye fluorescence, FDSS; host cell line not named in the record; reference of the full effect not given here; activation, % (no concentration beside the values); Q9GZU1; hit rate 0.12% among 410,000; AID 624414; in the data active = activation above about 50%; inconclusive = about 30% to 50%; inactive = below about 30%; further: 0% is about no effect; the text of the record puts the active cut at 80%
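Cells: TRPML1-DL, 1X Tet inducer, ~16 h at 37 degrees C/5% CO2. Dye: ABD Ca8 no-wash + quencher, 45-90 min RT. Read: 10 s baseline, compound add, 110 s agonist phase; 54-4 EC80 (4uM final), 110 s antagonist phase.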
Menin-MLL FL inh = inhibitors of human menin-MLL interaction, wild-type MLL peptide. Fluorescence polarization, fluorescein-MLL peptide displacement from menin. FP activity change, % at 61.4 µM. 290,000 tested, under 10 active; inconclusive = falling polarisation curve, or a change in total fluorescence; inactive = total fluorescence flat and polarisation flat or rising; no compound was filed as active; the % refers to the polarisation; negative = inhibition;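 further: % of control where 0% means no effect; inhibitors lower the polarisation; unlabelled MLL peptide was the positive control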
Sfp inh = inhibitors of Bacillus subtilis Sfp phosphopantetheinyl transferase | Q9F4F7 | Biochemical Sfp PPTase activity, qHTS | Potency, µM, inactives show max response, negative = inhibition, hits mostly inhibitors | hit rate 3.5% among 310,000; active means well fitted inhibition curve with a large enough effect; inconclusive means small, poorly fitted or top-dose-only effect, or another doubt; inactive means no such curve, though single readings can be large or run the other way;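 further: the enzyme is Sfp with the accession as filed and its product quenches rhodamine fluorescence; potency means the concentration at half of the fitted maximal effect; 0% = enzyme reaction without inhibitor and -100% = no enzyme wells; top concentration of the series not given in the record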
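After 15 min at room temperature with compound, 15 nM Sfp received 5 uM rhodamine-CoA plus 12.5 uM BHQ-2-ybbR (50 mM Hepes pH 7.6, 10 mM MgCl2). Rate came from the fluorescence difference over 30 min, ex 525/em 598 nm.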
PINK1 modulator = changes PINK1 expression. hit rate 0.2% among 410,000. Potency, µM (doses to about 76.6 µM), without a hit: top-dose activation (PINK1 increase), hits mostly activators. AID 624263. PINK1 immunofluorescence, high-content cytometry, 24 h; active = well fitted activation curve with a large enough effect; inconclusive = small, poorly fitted or top-dose-only effect; inactive = flat fitted curve, though single readings scatter; cell line not stated here;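 further: potency means the concentration at half of the fitted maximal effect; % of control where 0% means no effect; nearly all actives have a fitted effect of over 65% in size; a mitochondrial uncoupler was the plate control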
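Decision-based qHTS: stable cells, 24 h exposure to five compound concentrations, CCCP as control. Fixed cells stained for PINK1 plus nuclear, mitochondrial and cell markers, cytometer read.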
* = called active by the depositor; ? = inconclusive; nt = no result given; & = joins results of further samples; [ ] = another dose, or the depositor's remark. Not a hit list. About 4.4% of those tested had a hit in this group.

SMILES	ClpP mod	TRPV1 PAM	TRPML1 inh	TRPML1 ag	Menin-MLL FL inh	Sfp inh	PINK1 modulator
Cc1ccc(-c2nnc(Oc3cccc(C)c3)c3ccccc23)cc1	0.8%	7	6	-0.6	-0.2	8%	3.2%
CC(Sc1nc(O)c(-c2ccccc2)c(=O)[nH]1)C(=O)Nc1ccc(Cl)cc1 (stereo not drawn)	nt	9	-8	-0.4	-3.5	10%	0.8%
CCN(CC)S(=O)(=O)c1ccc(S(=O)(=O)N2CCN(CCC#N)CC2)cc1	1.0%	29	9	0.5	2.9	17%	7.5%
C=CCNCCOCCOc1ccc(Cl)cc1C(C)(C)C	1.5%	3	-4	0.2	0.3	-72%	-1.3%
CCOc1ccc(NS(=O)(=O)c2ccc(C(=O)NCc3ccccn3)cc2)cc1	-1.3%	-1	-4	7.8	nt	nt	-1.7%
O=c1c2cn[nH]c2[nH]c(=S)n1-c1cccc2ccccc12	-17%	2	36	0.9	2.1	-22%	4.5%
CC(C)(C)C(=O)Nc1ccc(S(=O)(=O)c2ccc(NC(=O)C(C)(C)C)cc2)cc1	-9.1%	3	-2	-0.3	-0.5	3%	-2.5%[38.3 µM]
Cc1ccc(O)c(NC(=O)c2cc(-c3ccc(F)cc3)on2)c1	1.1%	?	-9&6	0.0&-0.4	-0.7	-2%	-2.8%&-0.1%
O=C(COC(=O)C1CC2C=CC1C2)Nc1cccc(S(=O)(=O)N2CCCCC2)c1 (stereo not drawn)	0.6%	5	-2	0.0	5.7	2%	3.8%
COc1ccc(CNC(=O)c2ccc3c(c2)N(C)CCS3)cc1	4.6%	-3	33	-0.8	2.3	2%	4.5%
COC(=O)[C@H](Cc1ccccc1)NC(=O)[C@@H](N)CC(=O)O	0.9%	nt	2	0.0	1.7	1%	0.2%
NS(=O)(=O)c1ccc(NC(=O)CCCC(=O)O)cc1	1.7%	4	-2	2.5	-3.9	20%	-0.9%
Cc1ccc(-c2nn(-c3cc(Cl)ccc3[N+](=O)[O-])c(=O)c3ccccc23)cc1	0.5%	2	-1	1.5	1.2	6%	20%[38.3 µM]
O=C(CC(=O)Nc1ccccc1F)Nc1ccccc1F	nt	-2	22	1.6	-1.4	-7%	0.7%
CC1CCc2nc3ccccc3c(C(=O)OCC(=O)NC3CCS(=O)(=O)C3)c2C1 (stereo not drawn)	nt	-35	-5	0.0	2.8	19%	-0.9%
COc1ccc(NC(=O)c2sc3nc(C)c(C(=O)Nc4ccc(C)cc4C)c(-c4cccs4)c3c2N)cc1	-2.6%	nt	-3	2.1	nt	nt	6.5%
COc1cc(OC)c(Nc2c3c(nc4nc(-c5cccs5)nn24)CCCC3)cc1Cl	-2.2%	nt	5	0.1	nt	nt	6.6%
c1ccn2c(SCc3ccc4c(c3)OCCO4)nnc2c1	-1.7%	-10	-7	-0.4	2.1	?	1.4%
Cc1ccc(-c2csc3nc(C)n(N)c(=O)c23)cc1	-0.3%	-15	0	-1.5	0.4	8%	-0.1%
COc1ccc(Cl)cc1C(=O)NNC(=O)C1CCCO1 (stereo not drawn)	nt	-10	-10	0.8	nt	nt	-1.9%
CCC1(C)Cc2c(sc3c2c(=O)n(C)c2nnc(SCC(=O)c4ccccc4)n32)CO1 (stereo not drawn)	1.3%	nt	5	-0.9	nt	nt	12%
COc1cccc(CN(C)C(=O)CCN=C2NS(=O)(=O)c3ccccc32)c1	0.6%	nt	2	-0.3	nt	nt	-0.8%
NS(=O)(=O)c1ccc(N2C(=O)C3C4CC(C(Br)C4Br)C3C2=O)cc1 (stereo not drawn)	nt	3	23	1.6	-2.4	17%	0.6%
COc1ccc(CN2[C@@H](CC(C)=O)c3ccc(/C=C/C(C)=O)cc3S2(=O)=O)cc1	1.9%&-2.3%	nt	-6	-0.6&-0.4	nt	nt	-0.7%
COc1ccc(CCNC(=O)CCCCCN2C(=O)[C@@H]3Cc4ccccc4CN3C2=O)cc1OC	-0.8%	2	6	-0.8	nt	8%	1.6%
NC(=O)C1CCCN(S(=O)(=O)c2ccc3ccccc3c2)C1 (stereo not drawn)	0.0%	-2	2	1.2	-5.3	6%	-0.6%
COc1cccc(NC(=O)CSc2nnc(Cn3nnc4ccccc43)n2C)c1	-0.5%	5	-20	-0.6	-1.8	10%	1.6%
Cc1cccc2nc(CNC(=O)CC3C(=O)NCCN3Cc3cccc(F)c3)cn12 (stereo not drawn)	?	19	9	1.8	nt	-14%	1.3%
Cc1ccc(C(C)C)cc1OCC(=O)NNC(=O)Nc1ccccc1	nt	-2	-2	1.4	-3.1	5%	6.7%
Cc1ccccc1NC(=O)Nc1nnc(CC(=O)NCc2ccccc2)s1	-6.2%	9	31	-0.1	-1.7	0%	16%
CCOc1c(Nc2ccc(C(C)C)cc2)c(=O)c1=O	1.4%	-1	25	-1.3	0.5	11%	3.7%
O=C(c1cccs1)N(Cc1ccco1)Cc1cc2ccccc2[nH]c1=O	-25%	-11	1	2.2	-0.7	-15%	-0.5%
CCN1CCN(CCNC(=O)c2ccc3c(c2)NC(=O)/C(=C\c2cccc(Cl)c2)S3)CC1	-1.7%	nt	3	0.7	nt	nt	13%
COc1cc(C(=S)N2CCCC2)ccc1OCc1ccc(C)cc1	-2.0%	-5	19	-0.5	1.6	-18%	1.3%
COC(=O)Cn1c(=NC(=O)c2ccc(OC)cc2)sc2cc(OC)ccc21	25µM*	4	3	1.8	2.2	?	6.2%
CCOc1cc(OCC)cc(C(=O)Nc2cccc(C(C)=O)c2)c1	-1.4%	-15	3	0.3	6.7	-7%	3.2%
COc1ccc(CNC[C@@H](CCCCN(C)Cc2ccc(OC)cc2)N2C[C@H](c3ccccc3)N(CCc3ccc(Cl)c(Cl)c3)C(=O)C2=O)cc1	-0.3%	?	-6	0.6	-23	28µM*	-2.0%
CC1CCCC(C)N1C(=O)COc1ccc(F)cc1 (stereo not drawn)	nt	-3	8	1.3	-0.4	7%	5.8%
COc1ccc([N+](=O)[O-])c(OC)c1C(=O)NC(=O)Nc1c(F)c(F)c(F)c(F)c1F	0.8%	?	1	-0.7	-6.5	8%	0.0%
COCCN(C(=O)CSc1n[nH]c(-c2ccc(OC)cc2)n1)c1c(N)n(Cc2ccccc2)c(=O)[nH]c1=O	-4.2%	5	4	1.6	nt	nt	1.3%
CN(C)CCCC1Sc2ccccc2Sc2ccccc21 (stereo not drawn)	-0.5%	nt	11	-0.1	nt	nt	-4.0%
CSCCC(NC(=O)c1ccccc1Br)C(=O)NCC1CCCCC1 (stereo not drawn)	nt	-16	-9	0.0	1.9	14%	3.5%
O=C(OCC(F)(F)C(F)F)c1ccccc1C(=O)Oc1ccc(F)cc1F	0.5%	-4	-3	2.3	-1.5	11%	-1.4%[38.3 µM]
COc1ccccc1N1CCN(S(=O)(=O)c2c(C)sc3ncn(CC(=O)Nc4ccc(C)cc4Br)c(=O)c23)CC1	0.5%	nt	9	0.5	nt	nt	0.7%
Cc1ccccc1NC(=O)c1snc2c(=O)[nH]cnc12	nt	-6	nt	nt	2.7	10%	nt
O=C1CCCCN1CCc1c[nH]c2ccccc12	-1.1%	-8	13	-0.5	0.5	0%	0.6%
CC(=O)Nc1ccccc1NC(=O)C/C(C)=N/NC(=O)C(=O)N1CCCCC1	nt	5	-5	0.0	0.0	-11%	4.0%
CCOc1ccccc1NC(=O)COC(=O)c1c(CC)noc1C	-8.6%	-22	-5	-0.2	nt	nt	-1.2%
CC1(C)OC(=O)C2=C(C[C@@H](C3CCCC3)O[C@H]2c2ccc(Cl)cc2)O1	-1.8%	nt	nt	-0.5	nt	nt	7.6%
COc1ccc(-c2csc(NS(=O)(=O)c3ccc([N+](=O)[O-])cc3)n2)cc1	-0.6%	7	1	-0.6	5.1	4%	1.2%
Cc1nn(CC(=O)Nc2ccc3c(c2)OCO3)c(C)c1[N+](=O)[O-]	-0.4%	1	23	-0.2	-0.4	12%	0.8%
O=C(O)CCc1nnc2n(Cc3ccc(F)cc3)c(=O)c3ccccc3n12	-8.2%	11	-1	-0.2	1.7	2%	0.3%
Cc1ccc(Nc2nc(N)nc(CN3CCN(C)CC3)n2)cc1	-2.0%	-7	24	2.2	2.4	4%	-2.6%
Cc1nc(N2CCN(c3ccccn3)CC2)c2c(C)c(C(=O)Nc3ccc(F)cc3F)sc2n1	nt	-8	31	19	-0.9	-9%	4.0%
CC(NC(=O)c1cc2ccccn2n1)c1ccccc1 (stereo not drawn)	?	nt	23	-0.8	nt	nt	1.3%
CCc1cccc2c(C(=O)CSc3nncn3-c3ccc(OC)cc3)c[nH]c12	nt	18	6	-0.7	6.3	6%	6.7%
NS(=O)(=O)c1ccc(NC(=O)C2CCCN(S(=O)(=O)c3ccc(F)cc3)C2)cc1 (stereo not drawn)	0.7%	-5	2	-0.1	0.4	11%	1.3%[38.3 µM]
Cc1nn(C2CCS(=O)(=O)C2)c(Cl)c1/C=C/C(=O)OCC(=O)N(C)C (stereo not drawn)	nt	-2	3	1.6	1.7	-2%	-0.5%
CC(C)(C)C(=O)CSc1ncnc2sc3c(c12)CCC3	0.0%	-11	-11	?	2.6	-16%	-0.6%
C=CCn1c(SCC(=O)NC2CCS(=O)(=O)C2)nnc1-c1cc2c(s1)CCC(CC)C2 (stereo not drawn)	-2.4%	3	29	-0.3	1.5	-5%	-1.4%
O=S(=O)(c1ccc2ccccc2c1)N1CCN(c2ccc(O)cc2)CC1	0.1%	nt	-9	-1.3	nt	nt	1.2%
COC(=O)c1ccc2c(c1)c(-c1ccccc1)c(-c1ccccc1)n2C	4.2%	nt	10	-0.4	nt	nt	0.4%

Two entries drawn at random from those above:
SMILES	ClpP mod	TRPV1 PAM	TRPML1 inh	TRPML1 ag	Menin-MLL FL inh	Sfp inh	PINK1 modulator
COc1cccc(CN(C)C(=O)CCN=C2NS(=O)(=O)c3ccccc32)c1	0.6%	nt	2	-0.3	nt	nt	-0.8%
Cc1nc(N2CCN(c3ccccn3)CC2)c2c(C)c(C(=O)Nc3ccc(F)cc3F)sc2n1	nt	-8	31	19	-0.9	-9%	4.0%
